Screens as filed in PubChem BioAssay.
D2 agonist: agonists of human D2 dopamine receptor (beta-arrestin). P14416. DiscoveRx PathHunter D2 beta-arrestin, luminescence, 90 min; 100% = 57 uM dopamine signal. activation, % (concentration not given with the values). 360,000 tested, 0.084% active; in the data active = activation above about 40%; inconclusive = about 15% to 40%; inactive = below about 15%; note: compound concentration not given in the record; the text of the record calls up to 30% inactive
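DiscoveRx PathHunter D2 beta-arrestin cells (2,100/well) attached overnight, then compound-stimulated 90 min at 37 C in HBSS/10 mM HEPES/0.1% Tween-20 buffer; beta-galactosidase complementation read by luminescence after 1 h at ambient temperature. Dopamine 57 uM final (EC100) as control.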
CtBP-E1A inh: blocks the CtBP interaction with E1A | 340,000 tested, 0.49% active | AlphaScreen GST-E1A/His-CtBP binding, 1536-well; active compounds read low; control for the full effect not named in the record | activity change, % (no concentration beside the values); in the data active means activity change below about -65%; inconclusive means about -30% to -65%; inactive means above about -30%; note: % is set by controls: 0 for no effect and ±100 for the full control effect
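Homogeneous bead-based format: GST-tagged E1A captured on glutathione donor beads, His-tagged CtBP on nickel acceptor beads; compounds precede bead addition by 2 h at 37 °C.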
D2 potentiator: human D2 receptor positive allosteric modulation; DiscoveRx D2 beta-arrestin cells, luminescence, 90 min; 100% = 57 uM dopamine signal; potentiation, % (no concentration beside the values); 360,000 tested, 0.23% active; active = potentiation of 50% or more; inconclusive = 30% to 50%; inactive = 30% or less;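 note: compound concentration not given in the record; tested on top of an EC20 dose of dopamine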
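D2 cells co-treated with compound plus 50 nM dopamine (EC20) for 90 min at 37 deg C to detect potentiation. Beta-arrestin recruitment was read as enzyme-fragment luminescence after 1 h at ambient temperature. Full response was set by 57 uM dopamine.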
Six1-Eya2 blk: blocks human Six1 binding to Eya2; Q15475+O00167; AlphaScreen GST-Six1/His-Eya2 binding, biochemical; active compounds read low; control for the full effect not named in the record; activity change, % (concentration not given with the values); 360,000 tested, 0.56% active; in the data active = activity change below about -65%; inconclusive = about -30% to -65%; inactive = above about -30%; note: % is set by controls: 0 for no effect and ±100 for the full control effect
Target sequence (O00167 whole entry, looked up): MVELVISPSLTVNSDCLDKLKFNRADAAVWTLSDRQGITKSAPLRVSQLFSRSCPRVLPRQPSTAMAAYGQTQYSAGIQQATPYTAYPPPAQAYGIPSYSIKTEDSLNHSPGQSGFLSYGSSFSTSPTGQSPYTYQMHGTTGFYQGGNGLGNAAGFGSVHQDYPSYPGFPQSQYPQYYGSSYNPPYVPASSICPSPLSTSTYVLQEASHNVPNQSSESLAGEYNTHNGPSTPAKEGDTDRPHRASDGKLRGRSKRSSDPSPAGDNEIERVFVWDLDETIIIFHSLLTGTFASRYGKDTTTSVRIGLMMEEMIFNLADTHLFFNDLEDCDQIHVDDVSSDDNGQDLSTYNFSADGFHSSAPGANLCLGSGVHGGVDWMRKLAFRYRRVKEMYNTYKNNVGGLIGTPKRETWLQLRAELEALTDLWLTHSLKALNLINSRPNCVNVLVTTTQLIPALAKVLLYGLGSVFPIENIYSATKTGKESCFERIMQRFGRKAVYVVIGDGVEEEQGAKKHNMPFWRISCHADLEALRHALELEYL
Target sequence (Q15475 whole entry, looked up): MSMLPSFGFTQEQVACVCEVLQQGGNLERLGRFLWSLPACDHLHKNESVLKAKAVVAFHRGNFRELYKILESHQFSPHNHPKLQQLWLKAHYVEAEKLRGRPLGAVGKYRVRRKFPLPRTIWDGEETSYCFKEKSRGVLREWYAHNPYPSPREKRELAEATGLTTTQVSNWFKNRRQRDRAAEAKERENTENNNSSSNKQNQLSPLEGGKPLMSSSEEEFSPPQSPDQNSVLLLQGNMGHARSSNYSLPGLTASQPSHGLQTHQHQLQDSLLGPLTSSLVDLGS
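Six1/Eya2 binding was read as AlphaScreen signal after compounds were pinned into GST-Six1 plus His-tagged Eya2 (5X stock 250/500 nM) in pH 8.0 Tris/NaCl/TCEP buffer, beads added, then incubated 1 h, 37 C, dark.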
gsp antagonist: gsp mutant antagonism | gsp-mutant cells, cAMP HTRF, 30 min; control for the full effect not named in the record | Potency, µM (top dose mostly 76.9 µM), without a hit: at the top dose activity change, negative = inhibition, actives largely listed as inhibitors | 340,000 tested, 0.4% active; active = falling curve of any shape with a large fitted effect; inconclusive = falling curve, mostly with a smaller effect; inactive = flat or rising curve; cell line not stated here;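 note: intracellular cAMP measured with PDE inhibitor Ro 20-1724 present during compound exposure; potency is the fitted concentration of half-maximal effect; % is set by controls: 0 for no effect and ±100 for the full control effect; nearly all actives have a fitted effect of over 65% in size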
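Cells, 2000/well, grown 16–24 h in DMEM 10% FBS with 0.5 mg/ml G418, then compounds plus […] (300 uM addition stock), 30 min at 37C. cAMP read by HTRF (cAMP-d2 and anti-cAMP antibody-K in lysis buffer) after 30 min RT.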
gsp agonist: activates gsp, the McCune-Albright syndrome mutation. AID 624287. gsp mutant cells, cAMP HTRF, 30 min; control for the full effect not named in the record. Potency, µM (series often up to 76.9 µM), without a hit: top-dose activation (cAMP increase), most hits filed as activators. 340,000 tested, 0.13% active; active = well fitted activation curve with a large enough effect; inconclusive = small, poorly fitted or top-dose-only effect, or another doubt; inactive = no such curve, though single readings can be large or run the other way; cell line not stated here;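 note: phosphodiesterase inhibitor Ro 20-1724 added with compounds to block cAMP breakdown; potency is the fitted concentration of half-maximal effect; nearly all actives have a fitted effect of over 60% in size; about a fifth of the inactives were tested at one dose only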
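Cells in DMEM/10% FBS with G418 were pretreated with compounds in DMSO plus […] (300 uM stock) for 30 min at 37C. cAMP was measured by HTRF (cAMP-d2 plus anti-cAMP antibody-K) after 30 min at room temperature.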
Active calls of the source: *; ? = inconclusive; / = not tested or not shown; [ ] = another dose, or the depositor's remark. Random draw from the library (roughly 1.4% active in at least one column).

structure | D2 potentiator | gsp agonist | Six1-Eya2 blk | D2 agonist | CtBP-E1A inh | gsp antagonist
C#CC[N+](C)(C)CCCCCCCC | -1 | -93%[inhibitor] | 0 | -2.8 | 10 | -4%
FC(F)(F)c1cc(-c2cccs2)nc2cc(-c3cccs3)nn12 | -23 | ? | 8 | -4.0 | / | 4%
CCc1cccc(CC)c1NC(=O)COc1ccccc1C(=O)c1cc(C#N)c(=O)n(C2CCCCC2)c1 | -13 | 25% | -8 | -2.0 | -6 | -9%
CC(C)(C)C(=O)N1CCN(c2ccnc3cc(Cl)ccc23)CC1 | 14 | -28% | 8 | -0.7 | / | ?
CC(=O)c1ccc(NC(=O)C2CCN(S(=O)(=O)c3cccc4cccnc34)CC2)cc1 | -5 | -34%[inhibitor] | -2 | -1.8 | 6 | -6%
CCn1c2ccccc2c2cc(/C=C(/C#N)C(N)=S)ccc21 | -26 | 0% | -17 | -8.5 | 6 | 22%
CCOC(=O)/C(=C\c1ccc([N+](=O)[O-])cc1)C(=O)c1cc(C(C)=O)c(Nc2ccccc2)s1 | -17 | -37% | -2 | -6.1 | -6 | 6%
CC1CN(C(=O)c2ccc(S(=O)(=O)Nc3ccccc3F)cc2)CC(C)O1 (stereo not drawn) | -6 | 10%[15.4 µM] | -1 | 0.2 | 7 | 9%
CN(CCc1ccccn1)C(=O)c1cccnc1Oc1ccc(Cl)cc1 | 1 | 29% | 1 | -1.3 | 51 | 7%
O=C1CCN(S(=O)(=O)c2ccccc2)CCN1CCOCc1ccc(Cl)cc1 | -6 | 1% | 0 | -1.4 | 1 | -1%
COc1ccc(NC(=O)/C(C#N)=C/c2ccc3c(c2)n(C)c(=O)n3C)cc1 | -12 | 11% | 9 | 1.5 | 15 | 2%
S=C(Nc1ccccc1)N1CCN(C/C=C/c2ccccc2)CC1 | -8 | -37%[inhibitor] | 1 | -4.1 | 0 | 5%
CCCC1OC(c2ccco2)OCC1CC (stereo not drawn) | -6 | 26% | -4 | 1.1 | -9 | 3%
O=C(Nc1ccccc1)C(=O)Nc1ccccn1 | 3 | 6% | 2 | -2.3 | 8 | 2%
COc1ccccc1CNC(=O)CSc1ccc(-c2cccs2)nn1 | 1 | -2%[15.4 µM] | -6 | 2.8 | 6 | -2%
O=C(CN1C(=O)S/C(=C\c2cc(Cl)c(O)c(Cl)c2)C1=O)Nc1ccccc1 | -11 | -32% | -7 | -4.0 | 50 | 40µM*
Cc1ccc(CNC(=O)CCC2CCCN(C(=O)CCC(F)(F)F)C2)o1 (stereo not drawn) | 7 | -49%[inhibitor] | 1 | 0.0 | 2 | 11%
Cc1c(C(=O)N2CCc3ccccc3C2)sc2nc(-c3ccccc3)cn12 | -16 | -27% | -10 | -0.7 | -5 | 2%
C=CCn1c2[n+](c3ccccc3c1=O)CCCCC2 | -10 | -15% | 3 | 0.2 | -3 | 11%
CC(=O)N1c2ccccc2-c2nc3ccccc3n2C1C (stereo not drawn) | 7 | -9% | -1 | -5.8 | 1 | -3%
Cc1cccc(Cn2c(SCC(=O)Nc3ccccc3)nc3c2c(=O)[nH]c(=O)n3C)c1 | -10 | 21% | -1 | -5.3 | -5 | 12%
O=C(Nc1ccccc1)N1CCCC(c2nc(-c3ccc(F)cc3)no2)C1 (stereo not drawn) | 18 | -9% | 0 | 1.3 | 0 | ?
COc1cc(NC(=O)c2cccc(F)c2)cc(OC)c1OC | 1 | -10% | 2 | 1.1 | / | 0%
Cc1cccc(NC(=O)CSc2nc(=O)n(CCCN3CCOCC3)c3c2CCCC3)c1 | -40 | -57%[inhibitor] | 6 | -3.0 | -1 | -9%
O=C(Nc1ccc(Cl)cn1)c1cccnc1 | -14 | 1% | -2 | -1.1 | -1 | 9%

Single records (already shown). Values in the order: D2 potentiator | gsp agonist | Six1-Eya2 blk | D2 agonist | CtBP-E1A inh | gsp antagonist
Shown for `O=C1CCN(S(=O)(=O)c2ccccc2)CCN1CCOCc1ccc(Cl)cc1` → -6 | 1% | 0 | -1.4 | 1 | -1%
Shown for `CC(=O)c1ccc(NC(=O)C2CCN(S(=O)(=O)c3cccc4cccnc34)CC2)cc1` → -5 | -34%[inhibitor] | -2 | -1.8 | 6 | -6%
Shown for `CCCC1OC(c2ccco2)OCC1CC` (stereo not drawn) → -6 | 26% | -4 | 1.1 | -9 | 3%

Carrying on:
structure | D2 potentiator | gsp agonist | Six1-Eya2 blk | D2 agonist | CtBP-E1A inh | gsp antagonist
CCCc1ccccc1OCCNC(C)=O | -6 | -17% | -3 | -4.0 | -1 | 5%
Cc1ccc(C(=O)C(C)OC(=O)CNS(=O)(=O)c2ccc(C)cc2)cc1 (stereo not drawn) | 2 | 6% | -5 | -1.0 | -9 | -17%
C1=CCC(CN2CCNCC2)CC1 (stereo not drawn) | -8 | -9% | 55 | -4.9 | 4 | 9%
O=C(NC(Cc1ccccc1)C(=O)Oc1ccc2c(C(F)(F)F)cc(=O)oc2c1)OCc1ccccc1 (stereo not drawn) | 22 | ? | 4 | 2.5 | 4 | 4%
O=C(NCc1ccccc1)c1ccc(CS(=O)(=O)c2ccccc2)o1 | 1 | 5% | 3 | -2.1 | -10 | -7%
CCN(CC)S(=O)(=O)c1ccc(Cl)c(C(=O)NC2CCN(Cc3ccccc3)CC2)c1 | -34 | ? | 3 | -1.2 | -2 | 5%
Cc1ccc(C(=O)CN(C(=O)c2ccc(Cl)c(Cl)c2)N2C(=O)C3CCCCC3C2=O)cc1C (stereo not drawn) | 4 | -1% | -1 | 1.3 | 6 | -4%
CC(=O)Nc1sc(N/N=C\c2ccco2)nc1-c1cccs1 | 78* | 10% | 4 | ? | -6 | -6%
CC(OC(=O)c1cccc(-n2cnnn2)c1)C(=O)Nc1ccc(N(C)C)cc1 (stereo not drawn) | -10 | -8%[15.4 µM] | -7 | -0.4 | 1 | 1%
CNS(=O)(=O)c1ccc2nc(NC(=O)c3ccc(N4C(=O)CCC4=O)cc3)sc2c1 | -3 | 2% | 0 | 5.6 | / | -5%
NC(=O)c1cccc(CC(=O)c2ccccc2)c1 | -19 | 26% | 11 | -4.7 | / | 3%
COc1ccc(CNC(=O)COC(=O)CC2CCCC2)cc1 | -7 | ? | -1 | -1.2 | -4 | 8%
Cc1ccc(/C=C2\SC(=S)N(C3CCS(=O)(=O)C3)C2=O)cc1 (stereo not drawn) | -23 | -26%[15.4 µM] | 5 | 1.1 | -18 | /
CCOc1ccccc1NC(=O)N1CCC(C(=O)c2ccc(F)cc2)CC1 | -17 | 14% | 4 | -2.5 | -1 | 4%
O=C(c1nc2ccc(Cl)cn2c1CN1CCC[C@H]1CO)N1CCc2ccccc2C1 | -31 | -47%[inhibitor] | -3 | 0.1 | -7 | /
Cc1cccc(C)c1NC(=O)Cn1nnc(-c2ccc(N3CCOCC3)cc2)n1 | 7 | 5% | -2 | -4.0 | 4 | 4%
O=Cc1ccc(Oc2ccc(F)cc2)nc1 | -4 | -18% | 0 | -0.7 | 15 | 6%
COCc1cc(C)nc(SCC(=O)Oc2ccccc2)c1C#N | -11 | -8%[15.4 µM] | 9 | -2.5 | -1 | 4%
OC(CSc1ccccc1)CN1CCN(c2ccccc2)CC1 (stereo not drawn) | -15 | -4%[15.4 µM] | -7 | 8.0 | -2 | 12%
CN(CC(=O)Nc1ccc(Cl)c(C(F)(F)F)c1)C(=O)CCCNC(=O)c1ccc(Cl)cc1 | -19 | 10% | 1 | -2.8 | 7 | -16%
O=C(CCCn1c(=S)[nH]c2cc3c(cc2c1=O)OCO3)N1CCN(c2ncccn2)CC1 | 1 | 5% | 9 | 0.3 | 26 | -10%
O=C(Nc1cc2c(cc1C(=O)O)OCCCO2)c1ccc(F)cc1F | 0 | 15%[15.4 µM] | 3 | -4.3 | 7 | -29%
NC(=O)c1ccc(=O)n(Cc2ccc(Cl)cc2Cl)c1 | 1 | -54%[inhibitor] | -2 | 2.8 | / | -2%
C#CCOC(=O)C1C2C=CC(C2)C1C(=O)O (stereo not drawn) | 16 | ? | 4 | 1.0 | -1 | 8%
O=C(CN1C(=O)NC2(CCc3ccccc32)C1=O)Nc1cccc(Cl)c1 (stereo not drawn) | -49 | 3%[15.4 µM] | -5 | -0.3 | 1 | 2%
CCOc1ccc(/C=N/NC2=NCCCCC2)cc1 | -5 | -30% | 6 | 1.6 | 5 | 5%
Cc1c(Cl)cccc1NC(=S)Nc1ccc(S(=O)(=O)Nc2ncccn2)cc1 | -17 | -3% | -2 | -1.3 | -19 | 9%
CC(=O)Nc1ccc(NC(=O)c2ccccc2CC[N+](=O)[O-])cc1 | -6 | -24% | -5 | 1.3 | 2 | 6%
COc1ccc(CC(=O)OCC(=O)Nc2ncc(Cl)cc2Cl)cc1OC | -10 | -5% | 0 | -0.6 | 7 | -5%

Among those listed so far, two contain a COOH group.
structure | D2 potentiator | gsp agonist | Six1-Eya2 blk | D2 agonist | CtBP-E1A inh | gsp antagonist
O=C(Nc1cc2c(cc1C(=O)O)OCCCO2)c1ccc(F)cc1F | 0 | 15%[15.4 µM] | 3 | -4.3 | 7 | -29%
C#CCOC(=O)C1C2C=CC(C2)C1C(=O)O (stereo not drawn) | 16 | ? | 4 | 1.0 | -1 | 8%

A draw from above in order of count of non-hydrogen atoms, descending:
structure | D2 potentiator | gsp agonist | Six1-Eya2 blk | D2 agonist | CtBP-E1A inh | gsp antagonist
O=C(CCCn1c(=S)[nH]c2cc3c(cc2c1=O)OCO3)N1CCN(c2ncccn2)CC1 | 1 | 5% | 9 | 0.3 | 26 | -10%
Cc1c(Cl)cccc1NC(=S)Nc1ccc(S(=O)(=O)Nc2ncccn2)cc1 | -17 | -3% | -2 | -1.3 | -19 | 9%
O=C(CN1C(=O)NC2(CCc3ccccc32)C1=O)Nc1cccc(Cl)c1 (stereo not drawn) | -49 | 3%[15.4 µM] | -5 | -0.3 | 1 | 2%
O=C(Nc1cc2c(cc1C(=O)O)OCCCO2)c1ccc(F)cc1F | 0 | 15%[15.4 µM] | 3 | -4.3 | 7 | -29%
CC(=O)Nc1ccc(NC(=O)c2ccccc2CC[N+](=O)[O-])cc1 | -6 | -24% | -5 | 1.3 | 2 | 6%
CCOc1ccc(/C=N/NC2=NCCCCC2)cc1 | -5 | -30% | 6 | 1.6 | 5 | 5%
C#CCOC(=O)C1C2C=CC(C2)C1C(=O)O (stereo not drawn) | 16 | ? | 4 | 1.0 | -1 | 8%
